# Tgondii IFNg = T. gondii growth inhibition with IFN-gamma, primary screen, cell-based; Toxoplasma gondii growth in IFN-gamma-treated host cells; active compounds read low; reference of the scale not given here; activity change, negative = inhibition, %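 (about 20 µM by stock and volumes)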; hit rate 3.8% among 69,000; AID 1259416, 2018;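 active means below -70%; inconclusive means fit judged invalid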;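 further: host cells are HeLa cells infected with Toxoplasma gondii; parasite growth read as luciferase light; one replicate is shown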
# The depositor's hits bear a star; i = inactive; ? = inconclusive; & = joins results of further samples.
cpd	SMILES	Tgondii IFNg
1	N#C[C@H]1[C@H](c2ccc(-c3cccc(F)c3)cc2)[C@@H](CO)N1C(=O)NC1CCCC1	-64.9
2	COc1ccccc1OCC(=O)NCCc1sc(-c2ccc(F)cc2)nc1C	6.5
3	O=C(COc1ccc(F)cc1)NCCc1csc(-c2cccc(F)c2)n1	-48.6
4	CCOc1ccc(NC(=O)N2CCC3(CC2)NC(=O)c2ccc(Cl)cc2N3C)cc1	177.6
5	Cc1cnc(CNC(=O)c2nc(-c3cn(C(C)C)cn3)n3ccccc23)cn1	-1.3
6	COc1ccc(-c2nc(-c3ccc(O)cc3)[nH]c2-c2ccc(OC)cc2)cc1	7.6
7	CSc1cccc(NC(=O)c2nc(Nc3ccccc3)c3ccccc3n2)c1	-5.1
8	Cc1cccn2c(CC(=O)N3CCNCC3C(=O)N3CCOCC3)cnc12 (stereo unspecified)	46.8
9	Cc1cc(C)n(C(C)C(=O)NCc2ccc(CN3CCCC3=O)cc2)n1 (stereo unspecified)	25.8
10	CN1CC2(CCN(C(=O)C3(c4ccc(Cl)cc4)CCCCC3)C2)OC1=O (stereo unspecified)	-3.0
11	COc1ccccc1N1CCN(C(=O)CN2C(=O)CCc3cc(Br)ccc32)CC1	-38.2
12	COc1ccc(-c2nc(CSc3nc4c(c(=O)[nH]3)CN(Cc3ccccc3)CC4)c(C)o2)cc1	-77.3*
13	CN(C)C(=O)[C@@H]1C[C@@H]2OCC[C@@H]2N(CCOc2ccc(Cl)cc2)C1	235.9
14	CC(C)c1csc(NC(=O)CC2CCN(Cc3ccccn3)CC2)n1	-11.4
15	Cc1ccc(S(=O)(=O)N(C)C[C@H]2OCCCC[C@H](C)Oc3ccc(NC(=O)c4ccncc4)cc3C(=O)N([C@@H](C)CO)C[C@H]2C)cc1	75.0
16	CN(Cc1ccccn1)C1C=CC2(CC1)CCN(S(C)(=O)=O)CC2 (stereo unspecified)	-11.6
17	NS(=O)(=O)c1ccc(CCC(=O)N[C@@H]2CCC(=O)N[C@H]2c2ccsc2)cc1	24.1
18	CC(=O)c1sc(-c2ccccc2)nc1C	22.3
19	COCC1(C(=O)NCc2cnc(C)cn2)CCC1	-3.5
20	O=C(CN1CCC(c2ccccc2)C1)NC1CCC(n2cnnc2)CC1 (stereo unspecified)	-3.2
21	O=C1NCCN2CCN(C(=O)c3ccccc3-c3ncn[nH]3)CC12 (stereo unspecified)	23.2
22	Cc1oc(-c2ccc(C(=O)NCc3cccc(F)c3)cc2)nc1CN1CCc2ccccc21	-42.9
23	C=CCOc1ccc(Cl)cc1CN1CCC2(CC1)CNC(=O)C2	1.1
24	Cn1cccc1C(=O)N1CCN(CC2CC2)c2ncccc2C1	i
25	Cn1cnc2ccc(NC(=O)c3cccc(NC(=O)CN4CCOCC4)c3)cc21	8.6
26	COc1ccc(-c2nc(Nc3ccc(CN4CCCCC4)cc3)c3ccccc3n2)cc1	-61.5
27	Cc1noc(C)c1NC(=O)Nc1ccc2c(c1)C(=O)N([C@H](C)CO)C[C@H](C)[C@@H](CN(C)S(=O)(=O)c1cccs1)OCCCC[C@@H](C)O2	156.9
28	COc1ccc(-n2nc3ccc(N)cc3n2)cc1	i
29	NC1CCC2(CCC(=O)N2Cc2ccncc2)CC1 (stereo unspecified)	-60.1
30	C/C(=C\c1ccco1)CN1CCC(CNC(=O)NC(C)C)C1 (stereo unspecified)	-2.4

cpd	SMILES	Tgondii IFNg
31	CC(C)c1ccc(C(=O)N2CCCC(N3CCC(CO)CC3)C2)c(=O)[nH]1 (stereo unspecified)	8.8
32	CCOc1ccc(N(CC)Cc2cnc(C)nc2)cc1C(F)(F)F	236.5
33	CO[C@@H]1CN(C)C(=O)c2cc(NC(=O)c3cnccn3)ccc2OC[C@@H](C)NC[C@@H]1C	1.7
34	CO[C@H]1C=CO[C@@]2(C)Oc3c(C)c(O)c4c(O)c(c5c(nc6cc(C)ccn65)c4c3C2=O)NC(=O)/C(C)=C\C=C/[C@H](C)[C@H](O)[C@@H](C)C(O)[C@@H](C)[C@H](OC(C)=O)[C@@H]1C (stereo partly specified)	1.7
35	Cc1cc(-c2cccc3cnccc23)cnc1N	-69.9
36	CCCc1noc(-c2c(O)c3ccccc3n(C)c2=O)n1	-55.2
37	CCOC(=O)C1CCN(c2nccc(OCC)n2)CC1	-5.9
38	CN1C[C@@H]2CCN(C(=O)C3CCCO3)CC[C@H]2S1(=O)=O (stereo partly specified)	5.7
39	O=C(NCCc1csc(-c2ccc(C(F)(F)F)cc2)n1)C(=O)Nc1ccc([N+](=O)[O-])cc1	31.3
40	O=C(Cc1ccc(F)cc1)NC1CCCCC1	-3.8
41	Fc1ccc(-c2cn[nH]c2-c2cnn(Cc3ccccc3)c2)cc1	-20.0
42	CC(Cn1cncn1)NCc1csc(-c2cnccn2)n1 (stereo unspecified)	6.3
43	O=C(/C=C/c1ccc(O)c(O)c1)OC(Cc1ccc(O)c(O)c1)C(=O)O (stereo unspecified)	6.1
44	O=S(=O)(Nc1cscc1S(=O)(=O)c1ccccc1)c1ccccc1C(F)(F)F	26.0
45	COCC(=O)N1CCc2ncc(CN(C)Cc3cncnc3)n2CC1	2.2
46	CCn1c(CC2CCN(CC3=CC[C@H]4C[C@@H]3C4(C)C)CC2)nn(C)c1=O	-35.7
47	CC(C)n1nc(CN2CCOCC2)c2c1CN(Cc1ccoc1)C2	-17.4
48	Cc1noc(C)c1NC(=O)N1C[C@@H](O)COC[C@@H]2O[C@@H](CC(=O)N[C@@H]3CCN(Cc4ccccc4)C3)CC[C@H]21	16.8
49	CCOC(=O)N1CCN(C(=S)NC(=O)c2ccc(F)c(F)c2)CC1	14.8
50	COC(=O)[C@@H]1C[C@@H](NC(=O)c2cccc(-c3cn[nH]c3)c2)CN1C	16.1
51	CCN1c2ccc(C)cc2C(=O)NC12CCN(C(=O)c1ccccc1OC)CC2	120.2
52	CCOc1ccccc1-c1nc(Cn2nnc(C(=O)Nc3cc(C)ccc3C)c2C)c(C)o1	56.7
53	CC(C)(O)C#Cc1ccc(C(=O)N2CCCC2c2ccccn2)o1 (stereo unspecified)	4.1
54	Cc1nc2ccc(Cl)cn2c1C(=O)NCC1(c2ccccc2F)CCOCC1	2.5
55	Fc1ccc(-n2cccn2)c(CN2CCCC(OCc3ccccn3)C2)c1 (stereo unspecified)	3.5
56	CN(c1cc(C(F)(F)F)ccn1)N1C(=O)CSCC1=O	24.1
57	O=C1NC2(CCCCC2)Cc2ccccc21	?
58	CCN(CC)C(=O)c1cc(=O)n(CC(=O)Nc2cccc(C)c2C)c2ccccc12	11.0
59	CCN1CCN(CCNC(=O)c2csc(-c3ccc(N4CCCC4)nc3)n2)CC1	-80.8*
60	O=C(C(=O)N1CCC(c2cc(Cc3ccccc3)[nH]n2)CC1)c1ccco1	-4.4

cpd	SMILES	Tgondii IFNg
61	Cc1ccc(C)c(N2CCN(c3nc(-c4ccc(Cl)cc4)nc4ccccc34)CC2)c1	-12.5
62	Cc1c(-c2nccn2CCc2nc(-c3cccnc3)no2)oc2ccccc12	-7.6
63	C/C=C/c1ccc([C@H]2[C@@H](CO)N3CCCCN(S(=O)(=O)c4ccc(OC)cc4)C[C@H]23)cc1	-43.5
64	NNC(=S)NCCc1ccc(Cl)cc1	4.1
65	CCC(NC(=O)c1cccc(F)c1OC)c1ccccn1 (stereo unspecified)	-2.9
66	COc1ccc2c(C)cc(=O)oc2c1	29.9
67	COc1cc(C(=S)N2CCOCC2)ccc1OS(=O)(=O)c1ccc(C)cc1	-14.2
68	Cc1cccc(S(=O)(=O)N[C@H]2CC[C@H](CCNC(=O)Nc3cc(F)ccc3F)O[C@@H]2CO)c1	-46.9
69	Cc1cc(C(=O)Nc2ccc3c(c2)CCC(=O)N3)no1	31.0
70	O=C(O)c1ccccc1C1CCN(C(=O)c2ccc3cc[nH]c3c2)C1 (stereo unspecified)	5.5
71	CCCN1C(=O)C2(NCCc3c2[nH]c2ccccc32)c2ccccc21 (stereo unspecified)	-34.9
72	CCN1CCCC1CN(Cc1cccs1)Cc1cnc(C)n1C (stereo unspecified)	46.6
73	CCN(CC)C(=O)Cn1c(=O)n(Cc2ccco2)c2ncccc21	28.0
74	CCN1CCC2(CN(Cc3cccnc3)CC23CCN(C(=O)c2ccco2)CC3)C1=O (stereo unspecified)	4.4
75	Cc1ccc2c(c1C)-n1cccc1C1(CCN(S(=O)(=O)c3c(C)noc3C)CC1)N2	-26.5
76	C[C@H](CO)N1C[C@H](C)[C@@H](CN(C)Cc2ccccc2)Oc2ccc(NC(=O)Nc3ccccc3)cc2C1=O	5.9
77	Cc1ccc2[nH]cc(-c3nccs3)c2c1	7.4
78	CCOc1ncccc1-c1cccc(-c2noc(C)n2)c1	-46.1
79	COc1cccc(NC(=O)Nc2ccc(-c3nc(-c4ccccc4)co3)cc2)c1	47.8
80	O=C1CCCN1Cc1nc(Cc2ccccc2)n[nH]1	-45.5
81	CC(=O)N1CC2(C1)[C@@H](c1ccc(-c3ccc(F)cc3)cc1)[C@@H](CO)N2CC1CC1	-38.1
82	CC(=O)NCC(=O)N[C@H](CCC(=O)O)C(=O)O	9.1
83	COc1ccc(C(=O)NCCc2csc(-c3ccc(Cl)cc3)n2)cc1	-57.5
84	NC(=O)c1ccnc(-c2ccc(F)cc2Cl)c1	24.9
85	COc1ccc2c3c(n(C)c2c1)[C@@H](CO)N(C)CC31CN(CC2CC2)C1	-3.1
86	O=C(Cc1ccccn1)N[C@@H]1CC[C@H](CCNS(=O)(=O)c2cccc(F)c2)O[C@H]1CO	-11.0
87	CC(C)c1cc(C(=O)NCCn2ncc(-c3ccc(Cl)cc3)c2-c2nccn2C)on1	-11.8
88	COc1cccc2c1OCCCN(S(=O)(=O)NCc1ccccc1)C2	1.2
89	COc1ccc2c(c1)CCCN2C(=O)c1nonc1N	20.9
90	COc1cccc(CC(=O)NCC2CCC(c3ccnc4cc(C)nn34)CC2)c1 (stereo unspecified)	-16.7

# Of the compounds above, these have a thiophene ring, fused or not.
cpd	SMILES	Tgondii IFNg
17	NS(=O)(=O)c1ccc(CCC(=O)N[C@@H]2CCC(=O)N[C@H]2c2ccsc2)cc1	24.1
27	Cc1noc(C)c1NC(=O)Nc1ccc2c(c1)C(=O)N([C@H](C)CO)C[C@H](C)[C@@H](CN(C)S(=O)(=O)c1cccs1)OCCCC[C@@H](C)O2	156.9
44	O=S(=O)(Nc1cscc1S(=O)(=O)c1ccccc1)c1ccccc1C(F)(F)F	26.0
72	CCN1CCCC1CN(Cc1cccs1)Cc1cnc(C)n1C (stereo unspecified)	46.6

# Retrieved by structure from the entries so far, 3 records:
cpd	SMILES	Tgondii IFNg
69	Cc1cc(C(=O)Nc2ccc3c(c2)CCC(=O)N3)no1	31.0
65	CCC(NC(=O)c1cccc(F)c1OC)c1ccccn1 (stereo unspecified)	-2.9
75	Cc1ccc2c(c1C)-n1cccc1C1(CCN(S(=O)(=O)c3c(C)noc3C)CC1)N2	-26.5

# Looked up above.
# entry 81 | Tgondii IFNg = -38.1
# entry 64 | Tgondii IFNg = 4.1
# entry 86 | Tgondii IFNg = -11.0
# entry 73 | Tgondii IFNg = 28.0
# entry 62 | Tgondii IFNg = -7.6
# entry 85 | Tgondii IFNg = -3.1

# (continued)
cpd	SMILES	Tgondii IFNg
91	Cc1ccc(Cl)cc1NC(=O)CC(C)n1nc(C)c(C)c1C (stereo unspecified)	23.7
92	CN(Cc1ccccc1)S(=O)(=O)c1cn(C)cn1	35.4
93	COCCN1CCc2ccc(=O)n(Cc3cccnc3)c2CC1	37.2
94	COC(=O)CN1C(=O)NC(C)(C)C1=O	-2.4
95	NC(=O)C1Cn2ccnc2C2(CCN(C(=O)c3ccccn3)CC2)O1 (stereo unspecified)	2.8
96	Cc1[nH]c(=O)[nH]c(=O)c1CC(=O)N1CCO[C@@H]2CCCC[C@H]21	1.3
97	CC(C)(C)N(Cc1ccccc1)C(=O)c1ccc(Br)o1	22.6
98	COc1cc(N2CC[C@H](O)[C@@H]2Cc2cnn(C)c2)ncn1	-57.0
99	CCn1ccnc1-c1nccn1-c1ccccc1OCc1ccccn1	55.8
100	OCc1ccnc(-c2ccc(F)cc2Cl)c1	9.4
101	O=C(C[C@H]1CC[C@@H]2[C@H](COC[C@H](O)CN2C(=O)Nc2ccccc2)O1)NCc1ccccc1F	20.0
102	CCc1nc(-c2nccn2CC2CCN(C3CCCC3)CC2)c(C)[nH]1	7.1
103	Cc1ccccc1-c1ccc(C2[C@@H]3CN(Cc4ccc5c(c4)OCO5)C[C@H]2N3)cc1 (stereo partly specified)	-20.0&5.8
104	CCNC(=O)C[C@@H]1CC[C@@H]2[C@H](COC[C@@H](O)CN2C(=O)C2CCCC2)O1	7.5
105	CC(c1ccccn1)N(C)Cc1ccc2nonc2c1 (stereo unspecified)	-6.5
106	CCCNC(=O)c1cc(-c2cnc(-c3ccnn3C)nc2)cn1CC1CC1	-15.2
107	COc1cccc(NC(=S)C(C#N)C(=O)N2CCC(C)CC2)c1 (stereo unspecified)	-42.4
108	Cc1ccc(CNC(=O)c2cc3cc(S(=O)(=O)N(C)C)ccc3n2Cc2ccncc2)o1	13.1
109	O=C(OC(C(=O)NCc1ccco1)c1cccnc1)c1cccs1 (stereo unspecified)	-3.6
110	C[C@H](NC(=O)C[C@H]1CC[C@@H]2[C@H](COC[C@@H](O)CN2Cc2ccc(C(F)(F)F)cc2)O1)c1ccccc1	-19.2
111	N#Cc1ccc(N2CCC3(CC2)CC(c2cccnc2)CO3)cc1 (stereo unspecified)	-67.0
112	Cc1ccc(-c2csc(-c3cccn3CC(=O)N3CCC(C)CC3)n2)cc1	-38.5
113	CCCCCc1c2c(cc(O)c1C(=O)O)OC(=O)c1c(cc(OC)cc1C(=O)CCCC)O2	15.4
114	COc1cccc(CN2CCN(C(=O)C3CCCO3)[C@@H](C)C2)c1 (stereo partly specified)	11.3
115	CC(=O)Oc1ccc2nc(-c3cccs3)oc(=O)c2c1	-17.9
116	COc1cc(OC2CCN(C)CC2)ccc1Nc1ncc2c(n1)n(C1CCCC1)c(=O)n2C	-59.3
117	CC1=CC[C@@H]2CN(c3ccc(CS(C)(=O)=O)cn3)C[C@@H]2C1	34.2
118	CO[C@H](CN(C)Cc1cc(F)ccc1F)[C@H](C)CN([C@H](C)CO)S(=O)(=O)c1ccc(C)cc1	-49.2

# Screening data: PubChem BioAssay, Broad Institute

# Not all compounds are listed. The share of hits here may be higher or lower than overall.
